Source: PubChem (Broad Institute)
Vaccinia inh = blocks a specific stage of Vaccinia orthopoxvirus infection. Vaccinia-infected cells, mCherry/Venus stage reporter fluorescence; hits give low values; some inactives read as strong as hits. AID 1053133. activity change (mCherry), % (test concentration not listed). 0.01% of 89,000 active;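 active = mCherry past -33% and 40 or more points under the early reporter, replicates agreeing; inconclusive = past -33% without that gap or agreement; tested in A549 cells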;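 note: scaled between vehicle wells and reference inhibitor wells; 23 nL library stock went into each well; one replicate is shown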
Vaccinia inh Venus = recorded beside Vaccinia inh, whose call it bears; activity change (Venus), %; measured here: Venus reporter, other viral stage;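 negative = less Venus signal; first of two replicates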
Active calls of the source: *; & = joins results of further samples. Not all compounds are listed; rates above refer to the full screens.

For C[C@@H]1CN([C@H](C)CO)C(=O)c2cc(C3=CCCC3)cnc2O[C@H]1CN(C)C(=O)Cc1ccncc1 the results were Vaccinia inh 8 and Vaccinia inh Venus 10.
Screening Cc1ccccc1S(=O)(=O)NCC[C@H]1CC[C@@H](NC(=O)C2CC2)[C@H](CO)O1 returned Vaccinia inh 15 and Vaccinia inh Venus 14.
COc1cccc(-c2ccc3c(c2)O[C@H](CN(C)Cc2ccncc2)[C@H](C)CN([C@H](C)CO)S3(=O)=O)c1 was read as Vaccinia inh -18 and Vaccinia inh Venus -13.
Screening COc1ccc(S(=O)(=O)Nc2ccc3c(c2)C(=O)N(C)C[C@@H](OC)[C@H](C)CN[C@@H](C)CO3)cc1 returned Vaccinia inh 18 and Vaccinia inh Venus 16.
For CCC(=O)N1C[C@@H](C)[C@@H](OC)CN(C)C(=O)c2cc(NC(=O)Nc3cccc(F)c3)ccc2OC[C@@H]1C the results were Vaccinia inh 18 and Vaccinia inh Venus 9.
`C[C@@H]1CN([C@@H](C)CO)S(=O)(=O)c2ccc(-c3cccc(C#N)c3)cc2O[C@@H]1CN(C)C(=O)Nc1cc(F)ccc1F` gave Vaccinia inh -19 and Vaccinia inh Venus -16.
C[C@@H]1CN([C@@H](C)CO)C(=O)CCCn2nncc2CO[C@@H]1CN(C)S(=O)(=O)c1ccc(-c2ccccc2)cc1 was read as Vaccinia inh -19&-19 and Vaccinia inh Venus -22&-13.
Cc1noc(C)c1NC(=O)Nc1cccc2c1O[C@H](CN(C)Cc1ccc3c(c1)OCO3)[C@@H](C)CN([C@H](C)CO)C2=O was read as Vaccinia inh 2 and Vaccinia inh Venus 4.
For COCC(=O)N(C)C[C@@H]1Oc2ncc(-c3ccccc3OC)cc2C(=O)N([C@@H](C)CO)C[C@H]1C the results were Vaccinia inh 5 and Vaccinia inh Venus 1.
O=C(C[C@H]1CC[C@H]2[C@@H](COC[C@H](O)CN2Cc2nccs2)O1)NCc1ccc(F)cc1 was read as Vaccinia inh 17 and Vaccinia inh Venus 4.
For CS(=O)(=O)Nc1ccc2c(c1)[C@H]1C[C@@H](CC(=O)NCc3cccnc3)O[C@@H](CO)[C@H]1O2 the results were Vaccinia inh -3 and Vaccinia inh Venus -11.
For C[C@@H]1CN([C@H](C)CO)C(=O)c2cc(C#Cc3cccnc3)cnc2O[C@H]1CN(C)C(=O)CC1CC1 the results were Vaccinia inh 16 and Vaccinia inh Venus 5.
For O=C(c1ccccn1)N1C[C@@H]2[C@H](c3ccccc31)[C@H](CO)N2C(=O)CC1CC1 the results were Vaccinia inh 2 and Vaccinia inh Venus 1.
Screening Cc1cccc(S(=O)(=O)N2C[C@H]3[C@@H](c4ccccc42)[C@@H](CO)N3CC2CCOCC2)c1 returned Vaccinia inh -2 and Vaccinia inh Venus 1.
Screening CCNC(=O)[C@H]1[C@H](CO)[C@H]2Cn3c(ccc(-c4cccc(F)c4)c3=O)[C@H]2N1C(C)=O returned Vaccinia inh 12 and Vaccinia inh Venus 5.
Screening C[C@@H]1CN([C@@H](C)CO)C(=O)c2cc(-c3cccc(C(=O)N(C)C)c3)cnc2O[C@@H]1CN(C)C returned Vaccinia inh 15 and Vaccinia inh Venus 14.
`COCCNC(=O)[C@H]1[C@H](CO)[C@H]2Cn3c(ccc(C4=CCCCC4)c3=O)[C@@H]1N2Cc1cocn1` gave Vaccinia inh 9 and Vaccinia inh Venus 11.
`COc1ccc2c3c(n(C)c2c1)[C@@H](CO)N(C(=O)c1cnccn1)CC31CN(C(=O)c2cnccn2)C1` gave Vaccinia inh 12 and Vaccinia inh Venus 3.
`C[C@@H]1CN([C@H](C)CO)C(=O)c2cccc(NC(=O)c3nc4ccccc4s3)c2O[C@@H]1CN(C)C(=O)Nc1ccc(F)cc1` gave Vaccinia inh -16 and Vaccinia inh Venus -16.
`C[C@@H](O)C#Cc1ccc2c(c1)O[C@@H](CN(C)C(=O)Nc1ccccc1)[C@@H](C)CN([C@@H](C)CO)S2(=O)=O` gave Vaccinia inh 6 and Vaccinia inh Venus 6.
Screening C[C@@H]1CCCCO[C@H](CN(C)S(=O)(=O)c2cn(C)cn2)[C@H](C)CN([C@@H](C)CO)C(=O)c2cc(NS(=O)(=O)c3cccs3)ccc2O1 returned Vaccinia inh 20 and Vaccinia inh Venus 11.
COc1ccccc1CN1CC2(C1)[C@H](c1ccccc1)[C@H](CO)N2Cc1ccccc1 was read as Vaccinia inh -32 and Vaccinia inh Venus -19.
For Cn1cnc(S(=O)(=O)N[C@H]2CC[C@@H](CC(=O)NCC3CCCCC3)O[C@H]2CO)c1 the results were Vaccinia inh 9 and Vaccinia inh Venus 9.
Screening Cc1noc(C)c1NC(=O)Nc1cccc2c1O[C@H](CN(C)CC1CC1)[C@H](C)CN([C@@H](C)CO)C2=O returned Vaccinia inh -15 and Vaccinia inh Venus -5.
For CCC(=O)NC[C@@H]1[C@@H](c2ccc(-c3ccc(OC)cc3)cc2)[C@@H](CO)N1C(C)=O the results were Vaccinia inh -6 and Vaccinia inh Venus 8.
For COc1ccc(-c2cn(CC(=O)N3CCC4(CC3)C(=O)NCN4c3ccccc3)nn2)cc1OC the results were Vaccinia inh 4 and Vaccinia inh Venus 0.
Screening COCCNC(=O)[C@H]1[C@H](CO)[C@H]2Cn3c(cccc3=O)[C@H]2N1Cc1ccccc1OC returned Vaccinia inh 11 and Vaccinia inh Venus 15.
Screening O=C(N[C@H]1CC[C@H](CCNS(=O)(=O)c2cccc(Cl)c2)O[C@H]1CO)c1ccc(F)cc1 returned Vaccinia inh 1 and Vaccinia inh Venus 2.
`O=C(C1CCC1)N1CC(=O)N2[C@H](CO)[C@H](c3ccc(C#Cc4cccc(F)c4)cc3)[C@@H]2C1` gave Vaccinia inh inconclusive.
O=C(NC1CCC1)[C@@H]1[C@@H](CO)[C@@H]2Cn3c(ccc(-c4ccccc4F)c3=O)[C@@H]2N1Cc1ccccn1 was read as Vaccinia inh -3 and Vaccinia inh Venus 0.
For CC(=O)Nc1ccc2c(c1)C(=O)N(C)[C@H]1CC[C@@H](CC(=O)NCCCN3CCOCC3)O[C@@H]1CO2 the results were Vaccinia inh 9 and Vaccinia inh Venus 12.
CCCNC(=O)N1[C@@H](CO)[C@H](c2ccccc2)[C@@H]1CNC(C)=O was read as Vaccinia inh 15 and Vaccinia inh Venus 25.
For O=C(C1=C[C@@H](c2ccccc2)C[C@@H](OCc2ccc(CO)cc2)O1)N1CCOCC1 the results were Vaccinia inh 13 and Vaccinia inh Venus 16.
`COCCNC(=O)C[C@@H]1C[C@H]2c3cc(NC(=O)C4CCOCC4)ccc3O[C@H]2[C@H](CO)O1` gave Vaccinia inh -2 and Vaccinia inh Venus 5.
Cc1noc(C)c1S(=O)(=O)Nc1ccc2c(c1)C(=O)N([C@H](C)CO)C[C@H](C)[C@@H](CN(C)S(C)(=O)=O)O2 was read as Vaccinia inh 16 and Vaccinia inh Venus 12.
For CCS(=O)(=O)NCC[C@H]1CC[C@H](NS(=O)(=O)c2cccc(F)c2)[C@@H](CO)O1 the results were Vaccinia inh 8 and Vaccinia inh Venus 11.
CNC[C@@H]1Oc2c(NC(=O)C3CC3)cccc2C(=O)N([C@H](C)CO)C[C@@H]1C was read as Vaccinia inh 3 and Vaccinia inh Venus 8.
`C[C@H]1CN([C@@H](C)CO)S(=O)(=O)c2ccc(C#Cc3ccccc3F)cc2O[C@H]1CN(C)C(=O)Cc1ccccc1` gave Vaccinia inh -23 and Vaccinia inh Venus -13.
`C[C@@H]1CCCCO[C@@H](CN(C)C(=O)Nc2ccc(F)cc2)[C@@H](C)CN([C@H](C)CO)C(=O)c2cc(NC(=O)Nc3ccc(F)cc3)ccc2O1` gave Vaccinia inh 18 and Vaccinia inh Venus 9.
`CO[C@H]1CN(C)C(=O)c2ccc(NC(=O)C3CC3)cc2OC[C@H](C)N(Cc2cc(F)ccc2F)C[C@H]1C` gave Vaccinia inh inconclusive.
Screening COCC(=O)N1[C@@H](CO)[C@@H](c2ccccc2)[C@@H]1CNC(=O)c1ccccn1 returned Vaccinia inh 9 and Vaccinia inh Venus 11.
`C[C@H](CO)N1C[C@H](C)[C@@H](CN(C)Cc2ccc3c(c2)OCO3)Oc2ccc(NC(=O)Nc3cccc4ccccc34)cc2C1=O` gave Vaccinia inh -3 and Vaccinia inh Venus -1.
`C[C@@H]1CCCCO[C@H](CN(C)S(=O)(=O)c2cn(C)cn2)[C@@H](C)CN([C@H](C)CO)C(=O)c2cc(NC(=O)C3CCCCC3)ccc2O1` gave Vaccinia inh 18 and Vaccinia inh Venus 11.
For C[C@H](CO)N1C[C@H](C)[C@@H](CN(C)C(=O)c2ccccc2F)Oc2ncc(C#Cc3cccc(F)c3)cc2C1=O the results were Vaccinia inh inconclusive.
For COc1ccc2c3c([nH]c2c1)[C@H](CO)N(C(=O)C1CCCCC1)CC31CCN(C(=O)c2ccncc2)CC1 the results were Vaccinia inh 3 and Vaccinia inh Venus -1.
Cc1noc(C)c1NC(=O)Nc1ccc2c(c1)C(=O)N([C@@H](C)CO)C[C@H](C)[C@H](CN(C)S(=O)(=O)c1cn(C)cn1)OCCCC[C@@H](C)O2 was read as Vaccinia inh 10 and Vaccinia inh Venus 4.
Screening C[C@H]1CN([C@@H](C)CO)C(=O)c2ccccc2-c2ccccc2CO[C@H]1CN(C)S(=O)(=O)c1ccccc1F returned Vaccinia inh 6 and Vaccinia inh Venus -2.
C[C@H]1CN([C@@H](C)CO)C(=O)CCCn2nncc2CO[C@@H]1CN(C)S(=O)(=O)c1cccs1 was read as Vaccinia inh 10 and Vaccinia inh Venus 17.
`C[C@@H]1CCCCO[C@H](CN(C)C(=O)NC2CCCCC2)[C@H](C)CN([C@@H](C)CO)C(=O)c2cc(NC(=O)CCC(F)(F)F)ccc2O1` gave Vaccinia inh -7 and Vaccinia inh Venus -9.
For CN(C)C(=O)c1cccc(-c2ccc([C@H]3[C@H](C#N)N(C(=O)C4CCC4)[C@H]3CO)cc2)c1 the results were Vaccinia inh 14 and Vaccinia inh Venus 7.
For C[C@@H]1CN([C@H](C)CO)C(=O)c2cccc(NC(=O)C3CC3)c2O[C@@H]1CN(C)S(=O)(=O)c1ccc(Cl)cc1 the results were Vaccinia inh 10 and Vaccinia inh Venus 4.
For Cc1ccc(S(=O)(=O)N(C)C[C@@H]2Oc3ccc(N(C)C)cc3C(=O)N([C@H](C)CO)C[C@H]2C)cc1 the results were Vaccinia inh 7 and Vaccinia inh Venus 8.
Screening CC=Cc1ccc2n(c1=O)C[C@H]1[C@H](CO)[C@@H](C(=O)NCCN3CCCC3)N(C(=O)NCCC)[C@@H]21 (mixture of isomers) returned Vaccinia inh 8 and Vaccinia inh Venus 3.
For CCS(=O)(=O)N1[C@H](CO)[C@H](c2ccc(C#CCC3CCCC3)cc2)[C@@H]1C#N the results were Vaccinia inh -8 and Vaccinia inh Venus -7.
O=C(C1CCCC1)N1CCCCN2[C@H](CO)[C@H](c3ccc(-c4ccncc4)cc3)[C@H]2C1 was read as Vaccinia inh 27 and Vaccinia inh Venus 13.
C[C@H](CO)N1C[C@H](C)[C@@H](CN(C)C(=O)Nc2ccccc2)OCc2ccccc2-c2c(n(C)c3ccccc23)C1=O was read as Vaccinia inh -24 and Vaccinia inh Venus -29.
For C[C@H](CO)N1C[C@H](C)[C@@H](CN(C)C(=O)NC2CCCCC2)Oc2c(NS(=O)(=O)c3cccs3)cccc2C1=O the results were Vaccinia inh 14 and Vaccinia inh Venus 12.
CC(C)(C)[C@@H]1C=C(C(=O)NCc2nc3ccccc3[nH]2)O[C@H](OCc2ccc(CO)cc2)C1 was read as Vaccinia inh 5 and Vaccinia inh Venus -1.
`CN1C(=O)c2cc(NC(=O)Cc3cccs3)ccc2OC[C@H]2O[C@@H](CC(=O)NCC3CC3)CC[C@@H]21` gave Vaccinia inh 17 and Vaccinia inh Venus 13.
For C[C@@H]1CN([C@H](C)CO)C(=O)Cc2cc(N(C)C)ccc2O[C@@H]1CN(C)Cc1ccc(C(F)(F)F)cc1 the results were Vaccinia inh -33 and Vaccinia inh Venus -23.
For Cc1noc(C)c1NC(=O)Nc1ccc2c(c1)C(=O)N([C@H](C)CO)C[C@@H](C)[C@H](CN(C)S(=O)(=O)c1c(C)noc1C)OCCCC[C@H](C)O2 the results were Vaccinia inh 19 and Vaccinia inh Venus 15.
COc1ccc(NC(=O)N2[C@@H]3CNC[C@H]2C3c2ccc(-c3cccc(C(=O)N(C)C)c3)cc2)cc1 (stereo not given in full) was read as Vaccinia inh 2&-2 and Vaccinia inh Venus -3&-17.
For C[C@@H]1CCCCO[C@H](CN(C)S(=O)(=O)c2ccc(Cl)cc2)[C@@H](C)CN([C@@H](C)CO)C(=O)c2cc(NC(=O)CCCN(C)C)ccc2O1 the results were Vaccinia inh 7 and Vaccinia inh Venus -2.
`O=C(NCC1CC1)[C@@H]1[C@@H](CO)[C@@H]2Cn3c(ccc(-c4cccc(F)c4)c3=O)[C@@H]2N1CC1CCOCC1` gave Vaccinia inh -2 and Vaccinia inh Venus 5.

Molecules shown so far that have two or more sulfur atoms, in the order listed:
Screening C[C@@H]1CCCCO[C@H](CN(C)S(=O)(=O)c2cn(C)cn2)[C@H](C)CN([C@@H](C)CO)C(=O)c2cc(NS(=O)(=O)c3cccs3)ccc2O1 returned Vaccinia inh 20 and Vaccinia inh Venus 11.
Cc1noc(C)c1S(=O)(=O)Nc1ccc2c(c1)C(=O)N([C@H](C)CO)C[C@H](C)[C@@H](CN(C)S(C)(=O)=O)O2 was read as Vaccinia inh 16 and Vaccinia inh Venus 12.
For CCS(=O)(=O)NCC[C@H]1CC[C@H](NS(=O)(=O)c2cccc(F)c2)[C@@H](CO)O1 the results were Vaccinia inh 8 and Vaccinia inh Venus 11.
C[C@H]1CN([C@@H](C)CO)C(=O)CCCn2nncc2CO[C@@H]1CN(C)S(=O)(=O)c1cccs1 was read as Vaccinia inh 10 and Vaccinia inh Venus 17.
For C[C@H](CO)N1C[C@H](C)[C@@H](CN(C)C(=O)NC2CCCCC2)Oc2c(NS(=O)(=O)c3cccs3)cccc2C1=O the results were Vaccinia inh 14 and Vaccinia inh Venus 12.
